# B2AR ag – activates human beta-2 adrenergic receptor causing internalization | 340,000 tested, 0.43% active | response, % (no concentration beside the values) | Am2.2-beta2AR cells, FAP receptor internalization, flow cytometry; reference of the scale not given here | P07550;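 active = response above a set limit, near 3 SD of response in nonfluorescent compounds, cut at about 42% in these data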;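 also: stock transfer was 100 nL into about 11 µL; a reference agonist was the positive control; negative values mostly stem from fluorescent compounds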
# Target sequence (P07550 whole entry, looked up): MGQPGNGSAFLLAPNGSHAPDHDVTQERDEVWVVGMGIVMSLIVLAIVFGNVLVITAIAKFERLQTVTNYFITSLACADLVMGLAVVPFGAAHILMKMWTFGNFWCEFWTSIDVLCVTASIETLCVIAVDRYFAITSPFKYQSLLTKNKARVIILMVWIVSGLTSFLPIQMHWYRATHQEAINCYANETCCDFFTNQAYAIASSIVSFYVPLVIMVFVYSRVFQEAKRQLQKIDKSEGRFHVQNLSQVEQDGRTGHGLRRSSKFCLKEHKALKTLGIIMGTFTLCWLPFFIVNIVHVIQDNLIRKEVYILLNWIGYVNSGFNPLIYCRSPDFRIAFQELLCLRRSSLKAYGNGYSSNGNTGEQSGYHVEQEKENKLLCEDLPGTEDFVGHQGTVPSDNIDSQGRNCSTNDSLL
# ALR inh – blocks human ALR sulfhydryl oxidase activity | purified ALR, DTT oxidation, H2O2 HRP-luminol luminescence | inhibition, % (test concentration not listed) | 290,000 tested, 3.8% active | AID 485317;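 active = mean and each replicate at 75% or more; inconclusive = only one of the two met; inactive = neither met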;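 also: stock transfer was 7.5 nL into about 7.5 µL; 0% = neutral wells and 100% = wells with inactivated enzyme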
# Target sequence (P55789 whole entry, looked up): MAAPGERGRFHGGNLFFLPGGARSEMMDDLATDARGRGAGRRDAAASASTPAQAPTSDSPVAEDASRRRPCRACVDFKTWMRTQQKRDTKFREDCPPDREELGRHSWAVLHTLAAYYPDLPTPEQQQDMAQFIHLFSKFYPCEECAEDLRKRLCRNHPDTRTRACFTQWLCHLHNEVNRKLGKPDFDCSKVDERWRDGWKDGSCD
# Calb FLC – affects C. albicans growth with fluconazole; C. albicans CaCi-2 (fluconazole-resistant clinical isolate) + fluconazole, Alamar Blue growth, 48 h; AID 1979; 300,000 tested, 0.57% active; growth inhibition, % (no concentration beside the values);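 active = most replicates above 75%; inconclusive = exactly half above 75%; inactive = most below 75%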;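 also: all wells also contain fluconazole at 8 µg/ml as a sub-toxic cotreatment; 0% = median of DMSO wells and 100% = median of geldanamycin control wells; wells of about 8 µL received 7.5 nL stock; the first replicate is given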
# RanGTP-Impb inh – inhibitors of RanGTP-importin-beta interaction, primary screen, biochemical, FRET, CFP-Ran, YFP-importin-beta, homogeneous; cell-free CFP-Ran/YFP-importin-beta FRET ratio; inhibition, % (concentration not given with the values); 300,000 tested, 1.1% active;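 active = most replicates above 15%; inconclusive = exactly half above 15%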;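 also: 0% = DMSO wells and 100% = Ran loaded with GDP instead of GTP; wells of about 40 µL received 100 nL stock; the first replicate is given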
# HNF4A DNA FP – change in binding of human HNF4 alpha to DNA; P41235; activity change, % at 10 µM; HNF4a-FITC DNA binding, fluorescence polarization, 1 h; AID 1224865; 360,000 tested, 0.3% active; in the data active = activity change above about 30%, passing the limit was not always enough;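 also: controls were the assay level and a saturating level of protein; the project sought stronger binding though the title names inhibitors; some compounds called inactive have numbers as strong as hits; positive values seem to mean higher polarization but the record does not say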
# Target sequence (P41235 whole entry, looked up): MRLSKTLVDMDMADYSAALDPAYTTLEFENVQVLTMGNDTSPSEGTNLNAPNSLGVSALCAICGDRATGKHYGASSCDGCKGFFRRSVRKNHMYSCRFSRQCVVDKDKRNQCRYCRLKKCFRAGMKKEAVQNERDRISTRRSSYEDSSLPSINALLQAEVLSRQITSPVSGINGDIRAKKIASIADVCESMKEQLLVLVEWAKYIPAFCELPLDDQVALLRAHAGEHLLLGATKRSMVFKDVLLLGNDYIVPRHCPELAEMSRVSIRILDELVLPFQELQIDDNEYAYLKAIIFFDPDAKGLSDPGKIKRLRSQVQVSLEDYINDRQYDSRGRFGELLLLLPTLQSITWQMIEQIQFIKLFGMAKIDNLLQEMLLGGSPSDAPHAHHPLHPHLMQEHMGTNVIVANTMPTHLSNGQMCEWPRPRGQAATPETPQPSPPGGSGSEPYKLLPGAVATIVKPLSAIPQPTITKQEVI
# LANA-H2A inh – blocks KSHV LANA binding to histone H2A/H2B; 320,000 tested, 0.6% active; AID 2629; inhibition, % (test concentration not listed); Q9QR71; cell-free LANA-H2A/H2B peptide, fluorescence polarization; in the data active = inhibition mostly above about 10%, no sharp cut-off; inactive = mostly below about 6.7%;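 also: stock transfer was 7.5 nL into about 10 µL; 0% = median of vehicle wells and 100% = median of positive control wells; one replicate is shown; the record names a cut of 25% in any replicate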
# Vif A3G – HIV-1 Vif–A3G interaction blockers – biochemical, TR-FRET, GST-Vif 1-94, biotin-A3G peptide, dose response retest, primary screen (AID 1117319); TR-FRET GST-Vif / biotin-A3G peptide binding; higher % means a stronger effect; test concentration not given here; strong numbers were not always called active; inhibition, %, or IC50 in µM where a hit was titrated; 260,000 tested, 0.57% active;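 active = above the screen mean plus three standard deviations and confirmed in dose response; inconclusive = results disagree or hit not tested in dose response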;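 also: Vif residues 1-94 fused to GST binding biotinylated APOBEC3G peptide 110-148; 0% = full assay without inhibitor and 100% = GST in place of GST-Vif; retest series ran down from 100 µM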
# Active calls of the source: *; ? = inconclusive; · = no result given; & = joins results of further samples.
SMILES,B2AR ag,ALR inh,Calb FLC,RanGTP-Impb inh,HNF4A DNA FP,LANA-H2A inh,Vif A3G
CCOc1ccc(NC(=O)CCNS(=O)(=O)c2cccs2)cc1,10,-5,1,0.2,1.1,-5.1,2%
CSc1nnc(C2CCCN(CC(=O)Nc3ccccc3N3CCOCC3)C2)n1C(C)C (centres undefined),4,1,-4,-2.6,1.7,-15,·
O=C(Nc1ccc2ccccc2c1)c1cccc2ccccc12,-3,·,·,·,-1.3,·,0%
Cc1ccc(NC(=O)CN(C)C(=O)CSc2nnc(NC(C)C)s2)cc1,-12,·,·,·,4.3,·,-2%
Cc1ccc(S(=O)(=O)Oc2cc(N)c3c(n2)CCC3)cc1,-7,-11,-3,5.3,2.1,-1.5,31%
O=C(Nc1ccc(S(=O)(=O)Nc2nccc(C3Cc4ccccc4C(=O)O3)n2)cc1)c1ccccc1 (centres undefined),0,·,4,7.0,1.1,·,-5%
CC(C)OC(=O)C1Cc2ccccc2CN1S(=O)(=O)c1cccs1 (centres undefined),4,-4,11,5.4,-3.0,-3.1,21%
Cc1cccnc1NC(=O)CN1C(=O)c2ccccc2S1(=O)=O,0,-10,-2,-1.6,-4.6,-1.2,-3%
Cc1sc2ncnc(SCC(=O)c3ccc(Cl)s3)c2c1C,·,-1,-2,3.1,·,1.2,-6%
COCCNC(=O)c1ccc(C)c(S(=O)(=O)Nc2ccc(C)cc2)c1,-1,-2,-8,1.0,-0.1,-9.1,21%
COc1cc(/C=C2/C(=N)N3OC(C)=CC3=NC2=O)ccc1OCCOc1ccc(C)cc1,-14,-5,-3,-3.2,0.8,-1.9,1%
COCCn1c(Cc2ccccc2)nnc1SCc1nc2ccccc2c(=O)[nH]1,-3,-1,1,6.9,3.9,-2.8,-12%
COc1ccccc1CNC(=O)COC(=O)CNS(=O)(=O)c1ccc(C)cc1,7,-1,-6,?,2.4,2.8,-3%
O=C1C(=O)N(CNc2cccnc2)c2ccccc21,7,-39,27,4.9,0.3,-0.6,?
COC(=O)C(CCSC)NC(=O)CNS(=O)(=O)c1ccc(Br)cc1 (centres undefined),7,·,-6,-3.3,0.6,-2.1,3%
Fc1ccc(NC(=S)NCCc2ccccn2)cc1,3,52,0,?,-3.1,-1.3,·
COc1cc(C2=NOC(C(=O)N3CCOCC3)C2)cc(OC)c1OC (centres undefined),0,-1,-9,·,3.3,-3.4,0%
CCCOP(=O)(OCCC)C1(Nc2ccc(C)cc2)CCCCC1,3,93*,2,0.0,1.9,-8.4,3%
O=C(c1csc2ccccc12)n1cccn1,3,-10,·,·,1.1,2.1,5%
NC(=O)c1oc2ccccc2c1NC(=O)CCc1ccccc1,-5,48,0,3.2,-2.3,0.2,-5%
CCOc1ccc(S(=O)(=O)Nc2ccc3c(c2)OCO3)cc1,-16,12,0,0.0,-0.4,-2.0,·
O=C1CN(C(=O)CNCc2ccccc2Cl)c2ccccc2N1,1,6,-8,-0.2,-0.9,7.8,·
CC(C)NC(=S)NNc1ncnc2sc3c(c12)CC(C)(C)OC3,6,56,5,-3.9,0.3,9.7,·
CCOC(=O)C1CCN(C(=O)c2cc(OCC)c(OCC)c(OCC)c2)CC1,-2,5,-42,-0.3,1.1,-1.5,-4%
Cc1cc(C)n(-c2nnc3n2N=C(c2c[nH]c4ccccc24)CS3)n1,3,-15,-7,3.2,2.9,-2.2,0%
CC(=O)Nc1c(C)ccc(CNC(=O)COc2cc(C)ccc2C)c1C,3,2,-7,5.5,4.6,4.1,5%
COCCNC(=O)CCCn1c(=O)c2ccccc2n(Cc2cccc([N+](=O)[O-])c2)c1=O,2,-7,-7,1.4,1.2,0.1,6%
O=C(C1CCN(S(=O)(=O)c2cccs2)CC1)N1CCc2ccccc2C1,-8,-11,-7,3.9,0.8,-3.8,2%
CCN(CC(=O)Nc1ccccc1C(=O)OC)S(=O)(=O)c1ccccc1,1,0,17,-5.2,-4.1,4.7,19%
Cc1csc(=O)n1CCC(=O)OCC(=O)Nc1cc([N+](=O)[O-])ccc1Cl,7,4,-2,-2.5,-3.6,6.8,-7%
CCN(CC(=O)Nc1ccc(NC(C)=O)cc1)C(=O)c1cccc(Oc2ccccc2)c1,-9,-2,4,-2.7,-2.5,-3.6,-6%
CC1CCN(CC(C)OC(=O)c2ccc3c(c2)OCCO3)CC1 (centres undefined),4,-8,31,0.0,1.1,8.2,?
O=c1c2ccccc2c(=O)n(-c2ccccc2)n1CCCCBr,-9,-8,23,-3.0,1.2,-3.2,·
Cc1nnc(SCC(=O)N2CCN(c3ccccc3)CC2)n1C1CC1,-8,·,·,·,-0.5,-3.1,80%
CCCCn1c(N)c(N(Cc2ccccc2OC)C(=O)COc2cc(C)ccc2Cl)c(=O)[nH]c1=O,-6,-4,4,-0.1,1.0,3.5,-4%
O=C(CCn1nnc2ccccc21)Nc1nnc(Cc2ccc(F)cc2)s1,7,-14,25,-2.5,2.8,-3.4,-4%
CCCCn1c(N)c(N(CCOC)C(=O)c2cc3c(s2)CCC3)c(=O)[nH]c1=O,4,-91,-1,1.9,-1.1,2.2,10%
C=CCN1C(=O)C(CC(=O)Nc2ccccc2)S/C1=N/c1nccs1 (centres undefined),1,-1,4,0.7,5.4,4.0,·
CNS(=O)(=O)c1cccc(C(=O)OCC(=O)N2c3ccccc3NC(=O)C2(C)C)c1,0,3,·,·,-2.4,8.5,5%
O=C(CCSc1ccccc1)NNC(=O)c1ccccc1F,-5,1,·,-0.6,-5.2,5.6,3%

# Laid out differently: results already given.
# Fields: B2AR ag | ALR inh | Calb FLC | RanGTP-Impb inh | HNF4A DNA FP | LANA-H2A inh | Vif A3G
CC1CCN(CC(C)OC(=O)c2ccc3c(c2)OCCO3)CC1 (centres undefined)
  4 | -8 | 31 | 0.0 | 1.1 | 8.2 | ?
O=c1c2ccccc2c(=O)n(-c2ccccc2)n1CCCCBr
  -9 | -8 | 23 | -3.0 | 1.2 | -3.2 | ·
Cc1nnc(SCC(=O)N2CCN(c3ccccc3)CC2)n1C1CC1
  -8 | · | · | · | -0.5 | -3.1 | 80%

# The results go on.
SMILES,B2AR ag,ALR inh,Calb FLC,RanGTP-Impb inh,HNF4A DNA FP,LANA-H2A inh,Vif A3G
Cc1ccc(-c2nnn(Cc3nc(N)nc(N4CCOCC4)n3)n2)cc1,1,11,1,-1.2,2.7,1.4,-5%
COc1ccc(C2=Nn3c(nnc3-c3ccccc3OC)SC2)cc1OCC1CC1,16,2,·,·,-0.5,-1.5,·
O=C(CCn1c(=O)[nH]c2ccsc2c1=O)N1CC(=O)N(CCc2ccccc2)C(=O)C1,-9,·,-9,6.1,-2.5,5.6,10%&-6%
CC(C)(C)n1nc2c(c1NC(=O)Cc1ccc([N+](=O)[O-])cc1)CS(=O)(=O)C2,-5,-1,4,-5.3,4.8,-0.2,·
CC(C)OC(=O)CSc1nnc(COc2ccc([N+](=O)[O-])cc2)n1C,4,-4,-9,7.4,-0.6,-6.6,·
COc1ccc(CCNS(=O)(=O)CCNC(=O)c2ccc(OC)cc2)cc1,-1,0,4,4.6,3.5,-1.4,-2%
N#C/C(=C\c1ccccc1OCc1ccc(C(=O)O)cc1)C(=O)Nc1ccc(O)cc1,-16,?,3,-2.8,0.9,-0.9,·
O=C(Nc1ccc(O)cc1)/C(=C/c1ccco1)NC(=O)c1ccccc1,-13,99*,3,2.4,-0.8,-0.3,1%
Cc1ccc(CN2C(=O)CCC2C(=O)NCC2CCCO2)cc1 (centres undefined),7,-3,1,-2.3,-0.6,6.0,-1%
Cc1ccc2c(Cn3ccnc3)cc(=O)oc2c1C,-19,1,7,0.3,1.2,-1.1,-16%
CCOC(=O)CN1CC23C=CC(O2)C(C(=O)Nc2ccc(F)c(C)c2)C3C1=O (centres undefined),2,-5,2,1.4,0.2,-0.9,-5%
COc1ccc(/C=C(\NC(=O)c2ccco2)C(=O)Nc2ccc(C(C)=O)cc2)cc1,-3,-9,-5,·,5.0,3.5,2%
COc1cccc(N2CCN(CC(=O)N3CCN(S(=O)(=O)c4ccc(Cl)cc4)CC3)CC2)c1,7,·,·,·,1.8,·,5%
CC(=O)N1CCN(C(=O)COC(=O)c2oc3ccccc3c2C)CC1,2,-1,·,·,0.9,-1.5,-6%
CCCCN(C)CCCNC(=O)c1ccc(N2CCCC2=O)cc1,27,-2,-5,-1.8,5.5,-4.4,0%
Cc1cccc(CC2S/C(=N/c3ccccn3)NC2=O)c1 (centres undefined),-11,0,7,-3.9,-0.3,0.1,-9%
Cc1ccc(NC(=O)C2COc3ccccc3O2)cc1S(=O)(=O)N1CCCCC1 (centres undefined),5,·,·,·,-0.4,-1.5,1%
CC1CCCCC1NC(=O)/C(C#N)=C/C=C/c1ccccc1[N+](=O)[O-] (centres undefined),16,98*,6,3.8,12,3.7,-5%
CC(=O)c1cccc(OCC(O)CNCC2CCCCC2)c1 (centres undefined),1,-2,-5,-0.2,-0.9,3.4,10%
O=C(CN1C(=O)c2ccccc2S1(=O)=O)NCc1ccc2c(c1)OCO2,-5,·,20,1.3,-1.8,-0.8,8%
O=C(CN1CCCC1)N1CCCC(c2ccc(F)cc2)c2ccc(F)cc21 (centres undefined),-9,-14,-17,-0.5,3.7,0.4,0%
CCCN(CC(=O)NC(=O)NC1CCCCC1)CC(=O)Nc1cc(Cl)ccc1Cl,3,-3,·,·,1.7,2.3,-1%
O=C1CSC(c2ccccc2Cl)N1 (centres undefined),-10,-5,-28,3.2,-0.6,-13,·
O=S(=O)(/N=C(/NNS(=O)(=O)c1ccccc1)c1ccccc1)c1ccccc1,8,?,33,-0.5,-3.1,2.4,8%
Cc1cc(OCC(=O)N(Cc2ccccc2)C2CCS(=O)(=O)C2)ccc1Cl (centres undefined),-16,-28,15,-0.4,2.1,8.9,·
COc1ccccc1NC(=O)CN1CCN(C(=O)C2CCCO2)CC1 (centres undefined),0,-4,·,·,0.7,1.8,-3%
Cc1ccc(S(=O)(=O)N2CCOCC2)cc1C(=O)OCC(=O)NC1CCCC(C)C1C (centres undefined),7,-1,·,·,-2.0,-20,-1%
Cc1cc(C)c(NC(=O)COC(=O)C2=COCCO2)c(Cl)c1,-1,2,-7,0.2,-0.2,-4.2,9%
Fc1ccc2cc(-c3ccsc3)ncc2c1,0,-1,·,·,0.3,-9.7,·
Cc1ccc(S(=O)(=O)N2CCN(C(=O)CSc3ccc(Cl)cc3)CC2)cc1,-7,0,13,5.5,-2.7,-5.4,·
CC(C)OC(=O)c1ccc(COC(=O)c2cccc(-c3nnc(-c4ccccc4)o3)c2)cc1,-5,-5,-6,-2.9,-0.5,-5.3,·
CCOC(=O)c1sc2ncn(/N=C/c3ccc(O)c(OC)c3)c(=O)c2c1C,5,4,30,-0.1,2.4,-1.0,7%
Cc1ccc(N(CC(=O)NCc2ccc(F)cc2)S(=O)(=O)c2cccs2)cc1,0,-3,9,-1.2,0.3,-6.0,3%
CN(CCC(=O)Nc1cc(S(=O)(=O)N(C)C)ccc1Cl)CC(=O)Nc1ccc(F)cc1,-3,0,13,1.2,-0.9,1.2,·
c1ccc(COC2CCCN(Cc3nc(-c4cnccn4)no3)C2)cc1 (centres undefined),-2,-4,-20,1.9,-2.5,5.4,5%
O=C(CN1CCN(c2ccccc2)CC1)NC(=O)NCc1ccco1,-1,34,-7,1.0,3.8,-4.2,8%
O=C(CN(C(=O)CCC(=O)Nc1nccs1)c1ccc2c(c1)OCO2)NCc1ccc(F)cc1,-1,-10,-7,-4.3,2.5,5.3,·
NC(=O)C1CCN(S(=O)(=O)c2cc3c4c(c2)CCN4C(=O)CC3)CC1,-5,-7,-1,-4.6,1.8,-4.8,-2%
O=C(O)c1ccc(-n2cccc2/C=C2/NC(=O)N(c3cccc(Cl)c3)C2=O)cc1,-68,·,·,·,-66,·,1.7µM*
